Bioassay records as filed in PubChem.
Calb biofilm kill – clotrimazole potentiators killing C. albicans biofilm, primary screen, 4-compound mixtures | C. albicans biofilm persisters + clotrimazole, fluorescence viability; primary screen in compound mixtures of four per well | inhibition, % at 7.6 µM | 0.02% of 120,000 active;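 active = inhibition above 30.3% in the primary screen of four-compound pools, then above 30% when the compound was retested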;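 note: compounds exposed to preformed 24 h biofilms for 48 h; the number belongs to the whole pool; some results filed as inactive read as strong as hits; inactives centre near 12; 0% = biofilm with clotrimazole alone and 100% = kill control; retested singly at about 60 µM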
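Test system: C. albicans CAF4-2 wild-type biofilms; buffer or medium: RPMI/MOPS medium, pH 7.0; schedule: 24 h biofilm formation, then 48 h compound exposure, 37 °C; detection: Alamar Blue fluorescence; measure: percent inhibition of biofilm viability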
An asterisk follows results filed as active; & = joins results of further samples. Not all compounds are listed; the hit share may differ from the screen's.

Molecule,Calb biofilm kill
O=C(N[C@H]1CP(=O)(Oc2ccccc2)O[C@H](COCc2ccccc2)[C@H]1O)C(Cl)(Cl)Cl (stereo partly specified),15
O=C(CNC(=O)c1ccc(Br)cc1)Nc1ccc(Br)cc1C(=O)c1ccccc1,17
CC(=O)Nc1ccccc1C(=O)OCc1ccccc1F,17
Cc1ccc2cc(C=C(C#N)C#N)c(Cl)nc2c1,13
Nc1cc(N2CCNCC2)c([N+](=O)[O-])cc1Cl,13
Cc1ccc(N2Cc3ccccc3C2=N)cc1[N+](=O)[O-],12
Cc1ccc(S(=O)(=O)NCCC(=O)Nc2ccc(Cl)cc2C(=O)c2ccccc2)cc1,20
C[C@]12CCC(=O)C=C1CC[C@@H]1[C@@H]2C(=O)C[C@]2(C)C(=O)CC[C@@H]12,4
CCn1cc(CN2CCCC(C(=O)c3cccc(OC)c3)C2)c(C)n1 (stereo unspecified),-4
COCc1cc(OC(=O)N(C)C)nc(-c2ccccc2)n1,10
C=CCn1c(O)c(/C(C)=N/N2CCCCC2)c(=O)[nH]c1=O,15
CCn1c(=O)n(CC)c2cc([N+](=O)[O-])c(N3CCNCC3)cc21,3
Cc1cc(C)n2c(Br)c(CN3CC4CC(C3)c3cccc(=O)n3C4)nc2n1 (stereo unspecified),21
CCC(=NCCC(c1ccccc1)c1ccccc1)c1c(O)n(C)c(=O)n(C)c1=O,-2
CNC(=O)c1cccn(Cc2cccc(C(F)(F)F)c2)c1=O,11
C[C@@H]1CC2(CCCC[N+]2(C)C)C[C@H]1C,7
COc1ccc(-n2c(/C=C3/C(=O)Nc4ccccc43)nc3ccccc3c2=O)cc1,15
NP(=O)(Oc1ccccc1Cl)Oc1ccccc1Cl,12
c1ccc(CNc2c3c(nc4ccccc24)CCC3)cc1,17
NC(=O)Cn1cc(C(=O)c2ccccc2F)c2ccccc21,8
CCCCC(=O)N/N=C/c1c(O)n(Cc2ccc(F)cc2)c(=O)[nH]c1=O,23
CN(C)C(Cc1ccc(Cl)cc1)C(=O)c1ccccc1 (stereo unspecified),27
CC(C(=O)c1c[nH]c2ccccc12)N1CCN(C(=O)c2ccco2)CC1 (stereo unspecified),21
CCC(=NCc1cccnc1)c1c(O)n(-c2ccccc2C)c(=O)[nH]c1=O,17
COc1ccc2c3c([nH]c2c1)C(C)=NCC3,1
Cc1ccc(C(=O)N[C@@H](C)CN2C3=NC[C@@H](Cc4ccccc4)N3C[C@H]2Cc2ccc(O)cc2)cc1Br,15
C=Cn1ccnc1P(=S)(c1ccc(Cl)cc1)c1nccn1C=C,6
Cc1cc2c(C(C)C)c(O)c(O)c(C=O)c2c(O)c1-c1c(C)cc2c(C(C)C)c(O)c(O)c(C=O)c2c1O,11&-7
CCCCCCn1c(=O)c(C(=O)Nc2cnccn2)c(O)c2ccccc21,12
CCc1ccc(CN2CCCC(C(=O)c3sccc3C)C2)o1 (stereo unspecified),9
O=C1NC(=O)N(Cc2ccc(F)cc2)C(=O)/C1=C\c1ccoc1,27
O=[N+]([O-])NC1=NCN(Cc2ccco2)CN1Cc1ccco1,22

A few values from above:
Result of C=Cn1ccnc1P(=S)(c1ccc(Cl)cc1)c1nccn1C=C in Calb biofilm kill: 6
Result of O=[N+]([O-])NC1=NCN(Cc2ccco2)CN1Cc1ccco1 in Calb biofilm kill: 22
Result of O=C1NC(=O)N(Cc2ccc(F)cc2)C(=O)/C1=C\c1ccoc1 in Calb biofilm kill: 27
Result of COc1ccc2c3c([nH]c2c1)C(C)=NCC3 in Calb biofilm kill: 1

Later entries
Molecule,Calb biofilm kill
C=CCn1c(O)c(C(C)=Nc2cccc(C(F)(F)F)c2)c(=O)[nH]c1=O,22
CCC(=NCC1CCCO1)c1c(O)n(-c2ccc(OC)cc2)c(=O)[nH]c1=O (stereo unspecified),17
COc1ccc(OC)c(NC2=NCCCS2)c1,8
CN(C)c1ccc(/C=C2/C(=O)NC(=O)N(Cc3ccco3)C2=O)cc1,8
CC(=O)N1N=C(c2cccnc2)CC1c1ccccc1O (stereo unspecified),12
COc1cc(CN=C(C)c2c(O)n(C3CCCCC3)c(=O)[nH]c2=O)cc(OC)c1,22
Cc1cccc(-n2c(O)c(C=Nc3ccc(S(N)(=O)=O)cc3)c(=O)[nH]c2=O)c1,5
CN(C(=O)Oc1ccc([N+](=O)[O-])cc1)c1ccccc1,5
COc1ccc(CCNCc2sccc2C)cc1OC,-9
Cc1[nH]c2ccccc2c1CCN,18
CN1C(=O)N(C)C(=O)C2(Cc3ccccc3N3CCCC32)C1=O (stereo unspecified),16
C/C(=N\NP(=S)(c1ccccc1)c1ccccc1)c1ccc(O)cc1O,21
O=[N+]([O-])c1ccc(N2CCNCC2)cc1N1CCCCCC1,18
CCCCN1C(=O)/C(=C/C=C/c2ccco2)C(=O)NC1=S,27
CC1CCCN(CC(=O)c2ccc(Cl)c(Cl)c2)C1 (stereo unspecified),-2
CCN(C(=O)CN1CC=C(c2ccccc2)CC1)c1c(N)n(Cc2ccccc2)c(=O)[nH]c1=O,7
C=CCn1c(O)c(/C=C/C=Nc2ccccc2)c(=O)[nH]c1=O,17
CC(C)n1cc(C(=O)N(CC(=O)NC(C)(C)C)Cc2ccccc2)cn1,16
CC(=O)OC[C@]12CCC(C)=C[C@H]1O[C@@H]1[C@H](O)[C@@H](OC(C)=O)[C@@]2(C)[C@]12CO2,24
Cc1cccc(-n2c(-c3cccs3)nc3ccccc3c2=O)c1,14
O=C(Cc1ccc([N+](=O)[O-])cc1)N1CCN(Cc2ccc3c(c2)OCO3)CC1,19
CCc1ccc(N2C(=O)NC(=O)C(CCc3ccncc3)(CCc3ccncc3)C2=O)cc1,15
CCC1C(c2ccccc2)NC(c2ccccc2)CC1(O)c1ccc(F)cc1 (stereo unspecified),25
CN(C)c1ccc(C=C2C(=O)NC(=S)NC2=O)cc1[N+](=O)[O-],6
COCCN1Cc2cc(=O)n3c([nH]c4ccccc43)c2C1=N,18
Cc1ccc2c(c1)C1CN(C)CCC1N2C(=O)c1cccnc1Cl (stereo unspecified),13
COc1ccc(CN2CCCC(C(=O)c3ccccc3SC)C2)cc1O (stereo unspecified),23
O=C(Nc1ccccc1)c1cccn(Cc2ccccc2)c1=O,3
CCCC[N+]1(C)C2CC(OC(=O)C(CO)c3ccccc3)CC1C1OC12 (stereo unspecified),17
C#CCN(C)C(C)Cc1ccccc1 (stereo unspecified),11
CC1CC2(O)c3nonc3CCC2N1O (stereo unspecified),-4
CCC(=NCc1cc(OC)cc(OC)c1)c1c(O)n(C2CCCCC2)c(=O)[nH]c1=O,15
CC(C)Oc1cccc(C(=O)C2CCCN(Cc3ccon3)C2)c1 (stereo unspecified),11
Cc1ccc(CC(=O)N2CCN(Cc3ccccc3)CC2)cc1,8
COC(=O)C1=CCCN(C)C1,6
CCCC(C)C1(CC)C(=O)NC(=Nc2ccc(OC)cc2)NC1=O (stereo unspecified),9
CN1CCN(c2ccc([N+](=O)[O-])c(SCCO)c2)CC1,-1
CCN1CCN(c2ccc([N+](=O)[O-])cc2C(=O)OC)CC1,7
CNC(=O)OCc1n(C)cc[n+]1C,3
CN1CC(C(=O)c2ccc(F)cc2)C(c2c(F)cccc2Cl)C1 (stereo unspecified),10

4 entries from above, field by field.
compound: COCc1cc(OC(=O)N(C)C)nc(-c2ccccc2)n1
  Calb biofilm kill = 10

compound: C=CCn1c(O)c(/C(C)=N/N2CCCCC2)c(=O)[nH]c1=O
  Calb biofilm kill = 15

compound: CCn1c(=O)n(CC)c2cc([N+](=O)[O-])c(N3CCNCC3)cc21
  Calb biofilm kill = 3

compound: Cc1cc(C)n2c(Br)c(CN3CC4CC(C3)c3cccc(=O)n3C4)nc2n1 (stereo unspecified)
  Calb biofilm kill = 21

Further entries follow.
Molecule,Calb biofilm kill
c1nc2nc3c(c(N4CCNCC4)n2n1)CCCC3,19
CN1C(=O)C(=Cc2ccc(N3CCOCC3)o2)C(=O)N(C)C1=O,23
CCCCC(=O)N/N=C/c1c(O)n(-c2cccc3ccccc23)c(=O)[nH]c1=O,15
Cc1cc(C=C2C(=O)NC(=S)NC2=O)c(C)n1-c1ccc2c(c1)OCO2,17
COc1cc2ccc(=O)oc2c2ccoc12,2
Cc1nc2cc(C(F)(F)F)ccc2n1C1CCN(Cc2nnnn2CCc2ccccc2)CC1,11
Cc1c(Cl)cccc1NC(=S)N1CC2CC(C1)c1cccc(=O)n1C2 (stereo unspecified),26
COc1cc(/C=C/[N+](=O)[O-])ccc1O,15
C/C(CC(c1ccccc1)c1c(O)c2ccccc2oc1=O)=N\NC(N)=S (stereo unspecified),7
CC(C)(C)c1ccc(C(=O)C2CCCN(C3CCC3)C2)cc1 (stereo unspecified),28
Cc1ccc(Cn2nc(C)c(C=O)c2Cl)cc1,0
NC(Cc1nc2ccccc2[nH]1)c1ccc(Cl)cc1 (stereo unspecified),5
Cc1ccc(-n2c(C)cc(/C=C3\C(=O)NC(=O)N(C)C3=O)c2C)cc1C,9
O=C(N/N=C/c1c(O)n(CCc2ccccc2)c(=O)[nH]c1=O)c1ccccc1,12
COc1ccc(C(=O)C2CCCN(Cc3ccon3)C2)c(OC)c1 (stereo unspecified),4
COc1ccc2[nH]cc(CCN(C)C)c2c1,18

The listing continues.
SMILES	Calb biofilm kill
CC1CCCC(C)N1/N=C/c1c[nH]c2ccc(Br)cc12 (stereo unspecified)	20
CCC(=NCc1cccnc1)c1c(O)n(-c2ccc(Cl)cc2)c(=O)[nH]c1=O	20
COC(=O)C1=CO[C@@H](C)[C@@H]2CN3CC[C@]4(C(=O)Nc5ccccc54)[C@@H]3C[C@H]12	5
CC(C)(C)P(=O)(NCc1ccccc1)c1ccccc1 (stereo unspecified)	15
CCOc1ccc(-c2cc(C)[n+](CCN(CC)CC)c(-c3ccc(OCC)cc3)c2)cc1	23
COc1ccc(CN2C(=O)NC(=O)/C(=C/c3ccc([N+](=O)[O-])o3)C2=O)cc1	22
Cc1ccc(O)c(C(=O)c2cc(C(=O)NCCC(C)C)c(=O)n(CCC(C)C)c2)c1	17
CCOC(=O)c1ccc(N=C(C)c2c(O)[nH]c(=O)[nH]c2=O)cc1	24
C=CCn1c(O)c(C(CC)=Nc2cccc(C(=O)O)c2)c(=O)[nH]c1=O	32
Cc1ccc(-n2c(O)c(C=Nc3ccc(S(N)(=O)=O)cc3)c(=O)[nH]c2=O)cc1	3
Nc1cc(Cl)c2nonc2c1[N+](=O)[O-]	14
CCNC(=S)N1CCn2cccc2C1c1cccnc1 (stereo unspecified)	4
CC(=NCC1CCCO1)c1c(O)n(-c2ccccc2C)c(=O)[nH]c1=O (stereo unspecified)	25
Cc1cccc(-n2c(-c3ccc([N+](=O)[O-])cc3)nc3ccccc3c2=O)c1	13
Cn1c(O)c(/C=N/N2CCCCC2)c(=O)[nH]c1=O	17
CCOC(=O)c1c(/N=C/C2C(=O)NC(=O)NC2=O)sc2c1CCC2	-11
O=C1NS(=O)c2cc([N+](=O)[O-])cc([N+](=O)[O-])c21 (stereo unspecified)	-27
O=c1[nH]c(=O)n(CCC2=CCCCC2)c(O)c1/C=N/Nc1cccc2ccccc12	10
O=C(Cc1ccccc1)Oc1ccc(N2C(=O)C3CCCCC3C2=O)cc1 (stereo unspecified)	13
Cc1ccc(/C=C2/C(=O)NC(=O)N(CC3CCCO3)C2=O)s1 (stereo unspecified)	14
O=C1NC(=O)N(c2ccccc2)C(=O)/C1=C\c1ccc2c3c(cccc13)CC2	19
CCOc1ccc(N2C(=O)NC(=O)/C(=C/c3cnc(SC)nc3)C2=O)cc1	7
C=CCn1c(O)c(C=NC2CCN(Cc3ccccc3)CC2)c(=O)[nH]c1=O	12
O=c1c2ccccc2ncn1-c1ccc([N+](=O)[O-])c(C(F)(F)F)c1	9
CC(C)[C@@]1(NC(=O)[C@@H]2C=C3c4cccc5[nH]cc(c45)C[C@H]3N(C)C2)O[C@@]2(O)[C@@H]3CCCN3C(=O)[C@H](Cc3ccccc3)N2C1=O	18
Cc1ccc(NP(=O)(Oc2ccccc2F)Oc2ccccc2F)cc1C	11
CCN(CC)P(c1n(C)cc[n+]1C)N(CC)CC	10
CCCCn1c(NS(=O)(=O)c2ccccc2)c(C(=O)OCC)c2nc3ccccc3nc21	19
O=C1/C(=C/c2cccnc2)N2CCC1CC2	16
COc1ccc(CN2CCCC(C(=O)c3sccc3C)C2)cc1O (stereo unspecified)	8
O=C1NC(=O)C(=Cc2ccc(Sc3ccccc3)o2)C(=O)N1	18
COC(=O)CCCCC1SCC(NC(=O)c2ccccc2)C1Cl (stereo unspecified)	13
CC(C)(C)C(=O)OC[N+](C)(C)CCOC(=O)C(O)(c1ccccc1)C1CCCC1 (stereo unspecified)	5
CN1C(=O)/C(=C/C=C/c2ccco2)C(=O)NC1=S	11
Cc1ccc(-n2c(O)c(/C=N/NC(=O)c3ccncc3)c(=O)[nH]c2=O)cc1	7
Nc1c2c(nc3sc4c(c13)CCCCC4)CCCC2	11
O=C(/C=C/c1ccccc1)NCCc1cnc[nH]1	14
COc1ccccc1OCC(=O)N1CCN(Cc2ccc3c(c2)OCO3)CC1	7
CCOC(=O)C(O)(c1ccc(NC(=O)NC)cc1)C(F)(F)F (stereo unspecified)	21
CCC(=O)OC1(c2ccccc2)C(C)CN(C)CC1C (stereo unspecified)	3
Cc1cc(C(=O)N=Nc2c(O)n(C)c3ccccc23)c(C)o1	7
CN(C)C(=O)Oc1ccc(-c2cn3cc(C(F)(F)F)ccc3n2)cc1	4

Three entries drawn at random from those above, as already listed:
SMILES	Calb biofilm kill
Cc1ccc(NP(=O)(Oc2ccccc2F)Oc2ccccc2F)cc1C	11
CCOC(=O)C(O)(c1ccc(NC(=O)NC)cc1)C(F)(F)F (stereo unspecified)	21
CC(C)(C)C(=O)OC[N+](C)(C)CCOC(=O)C(O)(c1ccccc1)C1CCCC1 (stereo unspecified)	5
